Assay outcomes deposited in PubChem BioAssay by National Center for Advancing Translational Sciences (NCATS).
StopGo reporter = High Throughput Screening for Foot and Mouth Disease Virus Antivirals. 1.2% of 410,000 active. human cells with a luciferase reporter of 2A StopGo recoding; control for the full effect not named in the record. Potency, µM (doses to about 57.9 µM), for the others: at the highest dose signal change, negative = less light; active = well fitted falling curve with a large enough effect; inconclusive = small, poorly fitted or top-dose-only effect; inactive = no such curve, though single readings can be large or run the other way; tested in HEK293T cells; also: % is scaled to controls: 0 for no effect and ±100 for the full control effect; nearly all actives have a fitted effect of over 45% in size; luciferase light after 4 h
NS1 function inh = qHTS Assay for Inhibitors of Influenza NS1 Protein Function; S. cerevisiae slowed by influenza A NS1, growth recovery by OD600; Potency, µM (titrated, usually from 46.1 µM), inactives show top-dose activity, positive = more growth; 0.4% of 270,000 active; AID 2326, 2010; active means well fitted rising curve with a large enough effect; inconclusive means small, poorly fitted or top-dose-only effect; inactive means no such curve, though single readings can be large or run the other way; also: nearly all actives have a fitted effect of over 50% in size
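Read-out: OD600 growth recovery of NS1-expressing budding yeast. Cells grown overnight at 30C in -URA glucose medium, washed, resuspended and diluted 1:100 in 2% galactose assay medium, pH 6.0. Same strain lacking NS1 served as positive control.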
LASV entry inh = qHTS for Inhibitors of binding or entry into cells for Lassa Virus. Lassa virus pseudotype entry inhibition, cell reporter; control for the full effect not named in the record. Potency, µM (top dose mostly 37.9 µM), for the others: at the highest dose activity change, negative = inhibition, most hits filed as inhibitors. 1.2% of 300,000 active. AID 540256, 2011; active means well fitted inhibition curve with a large enough effect; inconclusive means small, poorly fitted or top-dose-only effect, or effect the other way; inactive means flat fitted curve, though single readings scatter; tested in HEK293 cells; also: % is scaled to controls: 0 for no effect and ±100 for the full control effect; nearly all actives have a fitted effect of over 50% in size; luciferase read-out
SARS PLpro yeast = qHTS of Yeast-based Assay for SARS-CoV PLP; S. cerevisiae expressing SARS-CoV PLpro, growth rescue; control for the full effect not named in the record; Potency, µM (highest dose often 32.9 µM), without a hit: top-dose activity, positive = growth rescue; 0.19% of 330,000 active; active means well fitted rising curve with a large enough effect; inconclusive means small, poorly fitted or top-dose-only effect; inactive means no such curve, though single readings can be large or run the other way; also: 0% is about no effect; nearly all actives have a fitted effect of over 55% in size; growth read by luminescence after 48 h
Cruzain inh Det = qHTS Assay for Promiscuous and Specific Inhibitors of Cruzain (with detergent); Cruzipain (Trypanosoma cruzi), P25779; AID 1478, 2009; Potency, µM, inactives show max response, negative = inhibition, usual class: inhibitors; purified cruzain, Z-FR-AMC fluorescence, 0.01% Triton; 0.43% of 200,000 active;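 also: plate controls were neutral wells for no effect and buffer without enzyme for full effect; nearly all actives have a fitted effect of over 40% in size; top concentration of the series not given in the record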
Target sequence (P25779 123-467 limits assumed): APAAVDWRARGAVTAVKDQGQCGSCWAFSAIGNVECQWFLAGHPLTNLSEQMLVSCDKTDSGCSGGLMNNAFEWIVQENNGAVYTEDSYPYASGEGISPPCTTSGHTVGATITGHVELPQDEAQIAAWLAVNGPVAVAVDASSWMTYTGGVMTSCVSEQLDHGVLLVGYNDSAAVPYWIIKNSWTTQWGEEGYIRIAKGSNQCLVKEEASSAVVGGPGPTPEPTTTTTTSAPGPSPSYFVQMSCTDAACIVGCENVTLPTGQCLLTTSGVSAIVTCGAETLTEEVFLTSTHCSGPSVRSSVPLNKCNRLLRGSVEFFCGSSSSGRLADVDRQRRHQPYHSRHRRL
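Purified cruzain (1.5 nM final) was preincubated with compounds for 15 min at room temperature in 100 mM sodium acetate pH 5.5, 5 mM DTT, 0.01% Triton X-100. Reaction started with 2 uM Z-FR-AMC; AMC fluorescence change over 60 s gave activity.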
Cruzain inh noDet = qHTS Assay for Promiscuous and Specific Inhibitors of Cruzain (without detergent) | purified cruzain, Z-FR-AMC fluorescence, no detergent | Potency, µM, inactives show max response, negative = inhibition, hits mostly inhibitors | 2.3% of 200,000 active | AID 1476, 2009;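 also: plate controls were enzyme without inhibitor for no effect and buffer without enzyme for full effect; nearly all actives have a fitted effect of over 40% in size; top concentration of the series not given in the record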
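Purified cruzain at 1.5 nM, pre-incubated 15 min with compound at room temperature in 100 mM sodium acetate pH 5.5, 5 mM DTT, 0.00005% Triton X-100. Reaction started with 2 uM Z-FR-AMC; AMC fluorescence increase over 60 s gives rate.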
Marburg entry inh = qHTS for inhibitors of binding or entry into cells for Marburg Virus; AID 540276, 2011; 1.8% of 300,000 active; Marburg virus pseudotyped entry inhibition, cell reporter; control for the full effect not named in the record; about a third of the inactives were read at about 46 µM; Potency, µM (top dose mostly 37.8 µM), for the others: at the top dose activity change, negative = inhibition, hits mostly inhibitors; active = well fitted inhibition curve with a large enough effect; inconclusive = small, poorly fitted or top-dose-only effect, or effect the other way; inactive = flat fitted curve, though single readings scatter; tested in HEK293 cells; about a fifth of its hits are not listed in these tables; also: % is scaled to controls: 0 for no effect and ±100 for the full control effect; luciferase read-out
RE007 growth inh = qHTS Assay for Inhibitors of the HIV-1 protein Vpr; S. pombe RE007 Vpr strain, BacTiter-Glo ATP luminescence, 24 h; control for the full effect not named in the record; Potency, µM (top dose mostly 92.2 µM), for the others: top-dose activity change, negative = less growth; 0.21% of 360,000 active; AID 651644, 2012; active = well fitted falling curve with a large enough effect; inconclusive = small, poorly fitted or top-dose-only effect; inactive = no such curve, though single readings can be large or run the other way;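 also: % is scaled to controls: 0 for no effect and ±100 for the full control effect; nearly all actives have a fitted effect of over 50% in size; the assay follows cell death caused by Vpr and the record does not say whether a fall means rescue or toxicity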
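Fission yeast RE007 carrying one integrated HIV-1 vpr copy, seeded at OD 0.01 in PMG+AL medium with 23 nL pinned compound. Grown 24 h at 30 degrees; viability read by BacTiter-Glo luminescence after 5 min.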
The depositor's hits bear a star; ? = inconclusive; nt = no result given; & = joins results of further samples; [ ] = another dose, or the depositor's remark. Unless noted, calls follow the shape of the dose curve; as a rule, active = well fitted curve in the direction sought with a large enough effect; inconclusive = small, poorly fitted or top-dose-only effect, or another doubt; inactive = no such curve, though single readings can be large; an effect the other way counts as inactive or inconclusive. Potency is read from the fitted curve at half-maximal effect.

SMILES	StopGo reporter	NS1 function inh	LASV entry inh	SARS PLpro yeast	Cruzain inh Det	Cruzain inh noDet	Marburg entry inh	RE007 growth inh
Clc1ccc2c(c1)C(OC1CN3CCC1CC3)c1ccccc1CS2 (centres undefined)	?	-0.3%	?	2.6%	-2.6%	-9.9%	?	7.0%
OC1=C(O)c2nc3ccccc3nc21	34.9%[activator]	13.8%	4.3%	3.3%	-0.3%	27.6%	15.5%	8.5%
CC1=C(C(=O)Nc2ccc(Cl)cc2)C2(CCCCC2)C(C(N)=O)C(=S)N1 (centres undefined)	nt	0.0%	nt	12.5%	-7.4%	-1.9%	nt	nt
CCC(C)NC(=O)CSc1nc2n[nH]c(C)c2c(=N)n1-c1cc(Cl)ccc1C (centres undefined)	-22.0%	nt	2.9%[46.1 µM]	nt	-3.4%	?	nt	nt
C=CCn1c(SCc2cc(=O)n3ccsc3n2)nnc1C1CCCCC1	-21.7%	-7.3%	?	-0.8%	-9.0%	-7.3%	0.7%	-0.1%
Cc1ccc(C(=O)Nc2ccc(C(=O)N/N=C/c3ccc(C)o3)cc2)cc1	-7.4%	0.3%	?	1.5%	nt	nt	?	11.5%
O=C(NNS(=O)(=O)c1ccccc1[N+](=O)[O-])c1cccc(Cl)c1	19.2%	2.1%	1.4%	-4.7%	-3.3%	5.8%	9.8%	10.8%
Cc1nn2c(C(F)(F)F)c3c(nc2c1-c1ccccc1)CCC3	0.0%	2.0%	nt	-0.1%	nt	nt	nt	-8.5%
Cc1cc(-n2c(SCCC#N)nnc2-c2cccnc2)ccc1Cl	-5.2%	-6.4%	1.0%	10.2%	-0.7%	6.4%	7.4%	-1.4%
c1ccc(Cn2c(CN3CCCC3)nc3ccccc32)cc1	-19.4%	18.3%	19.7%	4.5%	4.9%	0.1%	-27.3%	-11.7%
COc1ccc(OCC(=O)N2CCN(Cc3ccc(SC)cc3)CC2)cc1	?	-1.8%	?	-0.3%	-0.1%	7.0%	-13.2%	-10.9%
Cc1ccc(S(=O)(=O)C(C#N)c2nc3ccccc3nc2N2CCC(C)CC2)cc1 (centres undefined)	0.0%	?	11.3%	-16.7%	-8.5%	-8.2%	2.7%&2.7%[46.1 µM]	9.9%
CSc1ncc2c(n1)-c1cc(C)ccc1SC2	-10.3%	3.3%	-11.5%	8.1%	-8.3%	-3.5%	?	-26.3%
O=C(COC(=O)c1ccccc1F)Nc1ccc2c(c1)OCCO2	10.9%	nt	-3.7%	-2.5%	nt	nt	8.8%[46.1 µM]	-3.7%
CCc1nc2ccc(N3CCN(C)CC3)cc2nc1CC	1.9%	nt	10.9%	0.7%	nt	nt	-0.2%[46.1 µM]	4.9%
O=C(NCCc1ccc(Cl)cc1)C1COc2ccccc2C1 (centres undefined)	10.3%	nt	8.0%[46.1 µM]	nt	-1.9%	9.8%	nt	nt
CC(C)c1cccc(C(C)C)c1NS(=O)(=O)c1cccs1	0.0%	nt	27.9%[46.1 µM]	nt	-7.7%	-12.4%	?	nt
CC1CCN(C(C)C(=O)Nc2cc(S(=O)(=O)N3CCCCC3)ccc2Cl)CC1 (centres undefined)	-26.3%	nt	-3.5%	-1.1%	nt	nt	16.4%	0.7%
CC1CCc2c(sc(/N=C/c3cccnc3)c2C(N)=O)C1 (centres undefined)	38.5%[activator]	-7.1%	12.9%	-0.7%	nt	nt	-0.5%	-1.7%
C=CCn1c(N)c(C(=O)OC(C)CC)c2nc3ccccc3nc21 (centres undefined)	-18.2%	-20.4%	-23.9%	-6.5%	-10.7%	?	2.1%	-13.2%
O=C(CN(C(=O)c1cccc([N+](=O)[O-])c1)C1CCCCC1)Nc1ccc(Cl)c([N+](=O)[O-])c1	-17.2%	1.5%	-13.9%	11.5%	-6.7%	-22.7%	2.9%	15.2%
CN(C)S(=O)(=O)c1cccn1-c1ncc(C(F)(F)F)cc1Cl	-18.0%	1.3%	-1.1%	-0.4%	1.6%	7.9%	4.4%	13.3%
Cc1ccc(C)c(OCCn2c(C3CC(=O)N(Cc4ccc(F)cc4)C3)nc3ccccc32)c1 (centres undefined)	?	nt	-7.5%[46.1 µM]	nt	-5.1%	11.2%	-22.6%[46.1 µM]	nt
O=S(=O)(c1ccc(N2CCN(CCO)CC2)nc1)N1CCOCC1	-8.1%	nt	-5.9%	-0.8%	nt	nt	2.3%	2.4%
CCCCC(=O)O[C@H]1CC[C@H]2[C@@H]3CCc4cc(O)ccc4[C@H]3CC[C@]12C	0.0%&-16.9%	8.8%	-0.6%	-34.6%	-4.2%	-11.3%	7.5%	?
COc1ccc(C2CC(=O)C3=C(C2)Nc2ccccc2N(C(=O)C2CC2)C3c2cccnc2)cc1OC (centres undefined)	27.2%	-45.2%	18.1%	nt	-2.0%	7.2%	-0.1%&2.6%	10.5%
O=C(CCC(=O)N(CC(=O)NC1CCCC1)c1cccc(F)c1)Nc1nccs1	10.1%	8.2%	2.2%[46.1 µM]	2.8%	nt	nt	10.9%[46.1 µM]	2.3%
COc1ccc(NC(=O)CSc2ncnc3c2sc2ccccc23)c(OC)c1	-14.4%	-4.5%	-15.6%	-6.5%	1.4%	-2.5%	11.4%	2.9%
CCOC(=O)c1ccc(NC(=O)CCn2c(=O)oc3ccccc32)cc1	-15.7%&0.4%	-6.9%	0.5%	?	0.5%	-3.9%	?	-0.2%
Cc1noc(C)c1COC(=O)c1ccc(F)c(S(=O)(=O)N2CCCCC2)c1	0.0%	nt	3.9%	-4.3%	nt	nt	-27.1%	-1.7%
COc1ccc(NC(=O)C(c2cc3c(cc2[N+](=O)[O-])OCO3)N2CCN(C=O)CC2)cc1 (centres undefined)	21.2%	-9.6%	5.0%	14.3%	-5.8%	6.7%	?	0.9%
CCC(C)c1ccccc1NC(=O)C(C)OC(=O)CN1C(=O)NC(C)(C)C1=O (centres undefined)	-17.0%	nt	7.2%	-1.9%	nt	nt	0.4%	2.8%
COc1cc(/C=N\NC(=O)c2ccc(Cn3nc([N+](=O)[O-])c(Cl)c3C)o2)ccc1O	0.0%	16.4%	-0.6%	6.6%	-3.2%	13.1%	7.5%[46.1 µM]	20.0%
C=CCn1c(SCC(=O)OC)nc2sc3c(c2c1=O)CCN(C)C3	nt	13.6%	nt	-4.6%	-2.7%	-22.6%	nt	nt
C[C@]12CC[C@@H]3c4ccc(O)cc4CC[C@H]3[C@@H]1CC[C@@H]2OC(=O)CCC(=O)O	-13.7%	-1.0%	2.8%	-1.6%	-2.8%	7.6%	-16.5%	1.1%[18.4 µM]
CC1COc2ccccc2N1S(=O)(=O)c1ccccc1 (centres undefined)	?	nt	?	0.6%	nt	nt	?	-15.5%
CC(C)(C)NC(=O)CCc1nnc(Cc2c[nH]c3ccccc23)o1	15.0%	1.7%	nt	0.1%	nt	nt	nt	16.7%
CC1=C(C(=O)N2CCCC(CCC(=O)NCc3ccccc3F)C2)OCCO1 (centres undefined)	0.9%	1.6%	-13.1%[46.1 µM]	0.6%	nt	nt	-6.1%[46.1 µM]	?
O=C1OC=NC1=Cc1ccccc1	6.1%	nt	17.1%	nt	nt	nt	?	3.9%
O=C1CCCN1CC1CCCN(Cc2nc(COc3ccccc3)no2)C1 (centres undefined)	-16.9%	1.1%	2.2%[46.1 µM]	-0.6%	nt	nt	1.2%[46.1 µM]	-22.2%
CC(C)(C)Nc1ncnc2c1cnn2-c1ccccc1	0.6%	-128.8%	nt	-11.5%	0.2%	-1.7%	nt	-3.6%
CCNc1nc(NCC)nc(N(C#N)CCOc2ccccc2)n1	-15.6%	-7.2%	-16.0%	-2.1%	nt	nt	2.6%	5.8%
CC1CCN(C(=O)COC(=O)c2ccc([N+](=O)[O-])o2)CC1	21.4%	nt	3.8%[46.1 µM]	-5.3%	nt	nt	3.5%[46.1 µM]	-27.6%
CCOc1ccc(-n2c(Cc3cc(=O)[nH]c(=O)[nH]3)nnc2SCC(=O)OC)cc1	0.0%	0.4%	nt	-3.3%	5.8%	-6.8%	nt	-8.3%
O=C(Nc1ccc2c(c1)Cc1ccccc1-2)c1cccnc1	22.9%	-55.8%	?	-2.3%	nt	nt	-2.8%	-8.7%
O=C(OCCN1CCN(C2=NS(=O)(=O)c3ccccc32)CC1)c1ccccc1F	5.1%	14.9%	nt	9.3%	nt	nt	nt	-10.2%
CN(C(=O)CSc1nnc(-c2ccncc2)n1-c1ccccc1)C1CCS(=O)(=O)C1 (centres undefined)	-26.7%	-8.3%	nt	0.6%	nt	nt	nt	15.2%
S=c1[nH]ccn1-c1cccc(Cl)c1Cl	-14.8%	8.2%	nt	4.1%	nt	nt	nt	1.1%
CC(C)OCCCn1c(=O)c2ccccc2n2c(-c3ccccc3F)nnc12	-7.2%	nt	4.6%[46.1 µM]	nt	-3.8%	-21.2%	5.7%[46.1 µM]	nt
CC(C)Cc1cc(C(=O)Nc2c(F)cc(F)cc2Br)no1	30.2%[activator]	-15.8%	nt	-5.9%	3.7%	6.4%	nt	-28.6%

Other records:
SMILES	StopGo reporter	NS1 function inh	LASV entry inh	SARS PLpro yeast	Cruzain inh Det	Cruzain inh noDet	Marburg entry inh	RE007 growth inh
CC(C)OC(=O)CSc1nnc(-c2cccnc2)n1N	-2.8%	-0.8%	3.9%	0.9%	3.4%	-4.2%	29.2%	1.2%
Cc1ccc(NS(=O)(=O)c2cc(C(=O)O)ccc2Cl)c(C)c1	-6.4%	-2.6%	8.7%	-1.8%	1.0%	-4.0%	-2.3%	-5.6%
COc1cc(-c2nn3c(-c4ccccc4)nnc3s2)cc(OC)c1OC	5.2%	8.4%	-22.4%	0.8%	2.5%	?	?	-11.6%
CC(C(=O)N1CCN(c2ccccc2F)CC1)c1ccc([N+](=O)[O-])cc1 (centres undefined)	0.0%	-8.5%	-11.2%[46.1 µM]	nt	nt	nt	-15.4%[46.1 µM]	5.5%
CC(C)OC(=O)C1C2C=CC3(CN(C(C)c4ccc(Br)cc4)C(=O)C13)O2 (centres undefined)	0.0%	-11.2%	nt	-3.6%	4.5%	-5.9%	nt	12.4%
